TSHR agonist: activates the human thyroid stimulating hormone receptor; P16473; HEK293-CNG-TSHR cells (CNG channel as cAMP sensor), membrane potential dye, cAMP; Potency, µM (titrated, usually from 57.1 µM), for inactives: at the top dose activation, usual class: activators; 73,000 compounds, 0.48% hits; active = well fitted activation curve of enough size with the parental cells flat; inconclusive = any curve in the parental cells; inactive = parental cells flat and receptor cells flat or falling; also: potency is read from the fitted curve at half-maximal effect; % of control where 0% means no effect; weak receptor curves with flat parental cells got no call and are not listed
Target sequence (P16473 whole entry, looked up): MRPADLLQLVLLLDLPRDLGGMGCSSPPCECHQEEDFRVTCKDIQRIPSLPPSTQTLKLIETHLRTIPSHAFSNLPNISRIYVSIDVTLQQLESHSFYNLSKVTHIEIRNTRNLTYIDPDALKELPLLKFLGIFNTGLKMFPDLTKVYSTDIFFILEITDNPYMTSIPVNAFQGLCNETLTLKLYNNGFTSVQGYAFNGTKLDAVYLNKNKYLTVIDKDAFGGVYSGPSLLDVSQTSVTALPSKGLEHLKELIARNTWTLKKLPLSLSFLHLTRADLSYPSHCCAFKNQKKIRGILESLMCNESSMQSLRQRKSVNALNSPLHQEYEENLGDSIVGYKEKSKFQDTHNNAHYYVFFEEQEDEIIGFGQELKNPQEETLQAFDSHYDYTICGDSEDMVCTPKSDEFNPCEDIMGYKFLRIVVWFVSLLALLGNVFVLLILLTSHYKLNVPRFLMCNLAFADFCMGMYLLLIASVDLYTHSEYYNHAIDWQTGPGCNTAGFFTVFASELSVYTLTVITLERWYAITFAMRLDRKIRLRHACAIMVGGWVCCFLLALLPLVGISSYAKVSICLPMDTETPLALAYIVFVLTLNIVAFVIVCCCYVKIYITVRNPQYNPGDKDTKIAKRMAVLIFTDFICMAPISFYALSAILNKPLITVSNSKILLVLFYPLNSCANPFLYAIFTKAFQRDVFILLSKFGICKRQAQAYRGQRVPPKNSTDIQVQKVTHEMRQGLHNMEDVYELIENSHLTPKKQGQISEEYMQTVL
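HEK 293 cells stably expressing TSHR and a modified CNG channel, with CNG-only parental cells as counterscreen, were preloaded 60 min at room temperature with membrane potential dye containing 100 uM RO 20-1724. Compound exposure was 30 min, and depolarization was read as fluorescence at 590 nm.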
AID923: qHTS Assay for Allosteric/Competitive Inhibitors of Caspase-1: Spectroscopic Profiling in AFC Spectral Region; compound fluorescence, AFC spectral region (405/520 nm); almost no hit is shown here; AID 923, 2007; 75,000 compounds, 1.1% hits; Potency, µM (titrated, usually from 57.5 µM), without a hit: at the top dose fluorescence increase, actives largely listed as activators; active = well fitted activation curve with a large enough effect; inconclusive = small, poorly fitted or top-dose-only effect;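 also: potency is read from the fitted curve at half-maximal effect; 0% is about no effect; scaled to a free AFC standard on each plate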
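Compound autofluorescence profiled at 405 nm ex/520 nm em during kinetic caspase 1 run (50 nM enzyme, 5 uM Ac-WEHD-AFC, HEPES pH 7.5, 10 mM DTT). Titration up to 57 uM; baseline from regression intercept, normalized to AFC standard curve.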
Resorufin fluor: compound fluoresces in the resorufin spectral region | max dye-equivalent concentration, M | Compound fluorescence, resorufin region 547/598 nm, buffer; active compounds read high | 59,000 compounds, 0.04% hits; active = above 10 nM dye equivalent; inconclusive = 1 to 10 nM; inactive = 1 nM or less; a few of its hits are not listed in these tables; also: highest value over a series up to 38 µM
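Dye-equivalent concentration values derive from comparing each well's 547/598 nm fluorescence against resorufin standards included on every plate. Incubation was 15 min at room temperature in 100 mM Tris, pH 8.0.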
A488 fluor: A488 region autofluorescence; compound autofluorescence, A488 spectral region, dye equivalency; active compounds read high; max dye equivalency, M; 59,000 compounds, 0.1% hits; AID 591; active = above 10 nM dye equivalent; inconclusive = 1 to 10 nM; inactive = 1 nM or less; about half of its hits are not listed in these tables;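 also: highest value over a series up to 38 µM; compound alone in buffer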
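Compound autofluorescence was read in 100 mM Tris pH 8.0 after 15 min at room temperature, ex 480 nm/em 540 nm. Intensities were converted to A488 dye-equivalent concentration using an on-plate six-point A488 standard curve.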
A647 fluor: compound fluoresces in the A647 spectral region | Compound fluorescence, A647 channel (570/671 nm), Tris buffer | max dye-equivalent concentration, M | 59,000 tested, under 10 active | AID 592; active means above 1 µM dye equivalent; inconclusive means 0.1 to 1 µM; inactive means 0.1 µM or less;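 also: values scaled relative to a standard on each plate; highest value over a series up to 38 µM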
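Spectral profiling of library compounds in pH 8.0 Tris: 15 min room-temperature incubation, single ex/em pair (570/671 nm), response normalized to Alexa 647 equivalents.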
Starred values were filed as active, the others as inactive; i = inactive; u = inconclusive; x = no result given; [ ] = dose if it differs, or a comment.

Structure	TSHR agonist	AID923	Resorufin fluor	A488 fluor	A647 fluor
O=C1c2cc([N+](=O)[O-])ccc2-c2ccc3c4ccc5c6c(ccc(c7ccc1c2c73)c64)C(=O)c1cc([N+](=O)[O-])ccc1-5	0%[11.4 µM]	-4.1%[11.5 µM]	i	i	1e-09
CCCC(=O)Nc1cccc(NC(=O)c2ccc3c(c2)OCO3)c1	-2%[11.4 µM]	0.4%	i	i	1e-09
CCOCCCNc1nc2c([nH]1)c(=O)n(C)c(=O)n2C	1%	-2.8%	i	i	3.8e-08
O=C(Cn1cc(/C=N/O)c2ccccc21)N1CCOCC1	0%	-1.0%	i	i	1e-09
O=C(Cn1cc2c(n1)CCCC2)NCc1ccccn1	2%	0.3%	x	x	x
COc1ccc(S(=O)(=O)Nc2cccc(NC(C)=O)c2)cc1	6%	-2.3%	i	i	1.6e-08
CCC12CC3CC(C1)CC(C(=O)Nc1nn[nH]n1)(C3)C2	2%	-0.6%	i	i	3.7e-08
CCOC(=O)C1CCN(S(=O)(=O)c2ccc(OCC)cc2)CC1	5%	0.1%	i	i	6.1e-09
COCCNC(=O)C1CC(=O)N(c2ccc(F)c(Cl)c2)C1 (centres undefined)	-4%	1.2%	x	x	x
CCc1nc(C)cn1S(=O)(=O)c1ccc(Cl)c(Cl)c1Cl	u	-0.5%	x	x	x
Cc1ccccc1NC(=O)C1CCCN1S(=O)(=O)c1cccc2cccnc12 (centres undefined)	7%	2.2%	x	x	x
COCc1nnc(NS(=O)(=O)c2ccc(NC(C)=O)cc2)s1	0%	2.2%	i	i	4e-08
COc1ccc(CCNC(=O)c2cc(-c3cc(C)c(C)cc3O)n[nH]2)cc1OC	22%	-0.8%	i	i	1e-09
CS(=O)(=O)c1nc(-c2cccs2)cc(C(F)(F)F)n1	19%	-0.8%	i	i	1e-09
Cc1cccc(-n2c(O)c(C=NCCCN3CCOCC3)c3ccccc3c2=O)c1	-2%	2.8%	i	i	2.4e-08
COc1ccc2cc3c(N)c(C(=O)N4CCCC4)sc3nc2c1	-15%	7.3%	i	i	1.9e-08
O=C1CCc2cc(S(=O)(=O)NCCC(=O)N3CCN(c4cccc(Cl)c4)CC3)ccc2N1	3%	0.2%	i	i	3e-08
Nc1cc(-c2nn[nH]n2)ccc1F	-2%	4.2%	i	i	4e-09
Cc1cccc(OCc2nc(C#N)c(NCCN(C)C)o2)c1	-3%	0.2%	x	x	x
FC(F)(F)COc1nc(OCC(F)(F)F)nc(N2CCN(c3ccccc3)CC2)n1	u	-2.6%	i	i	2.3e-08
CCC(C)(C)NC(=O)C1CCN(c2nc(C)cc(C)n2)CC1	u	2.0%	i	i	3.2e-08
CCC1(C)Cc2c(sc3nc(SCC(=O)O)[nH]c(=O)c23)CO1 (centres undefined)	2%	-1.0%	i	i	1e-09
CC(C)C(OC(=O)c1cccs1)C(=O)NCc1ccco1 (centres undefined)	6%	0.9%	i	i	1e-09
CCOC(=O)CNC(=O)CCCCCC(=O)NCC(=O)OCC	x	x	i	i	1.2e-09
CCN(CC)C(=O)COc1ccc(-c2nnc(N3CCCCC3)c3ccccc23)cc1	x	-2.8%	i	i	5.9e-09
CN(C)CCCNC(=O)Cc1ccc(Br)cc1	3%	2.7%	i	i	1e-09
O=C(CN1CCN(c2ccccc2)CC1)Nc1nnc(-c2ccccc2)s1	u	3.4%	i	i	6.7e-09
CCNc1nc(N2CCCCC2)nc(-n2nnc(C(=O)OCC)c2C)n1	u	-1.8%	i	i	1.6e-08
Fc1ccc(-c2nnc3sc(-c4ccc5c(c4)OCO5)nn23)cc1	28%	-0.7%	i	i	1.5e-09
CSc1nc2ccccc2n1Cc1cccc(F)c1	u	0.3%	i	i	1.3e-08
N#Cc1c(N)nc(SCc2ccccn2)c(C#N)c1-c1cccs1	x	x	i	i	3.3e-09
CCOC(=O)c1cccc(NC(=O)CSc2nnc(-c3ccoc3C)n2CC)c1	17%	-2.8%	i	i	1e-09
CCC1CCCCN1CCCNC(=O)CC1Oc2ccc(C)cc2NC1=O (centres undefined)	-6%	-0.1%	x	x	x
COC(=O)Cn1c(CCC(=O)O)ccc1-c1ccccc1	2%	0.0%	x	x	x
Cc1cccc(NC2SC(=O)N(c3ccccc3)C2=O)c1 (centres undefined)	-4%	-0.1%	x	x	x
CC1CCN(S(=O)(=O)c2cn(CC(=O)N3CCN(C)CC3)c(=O)c3ccccc23)CC1	u	0.3%	i	i	1.9e-08
CCCCOC(=O)CCc1nc2ccccc2[nH]1	x	x	i	i	2e-09
c1ccc(CNc2ccc3ccccc3n2)nc1	3%	1.9%	x	x	x
O=C(NC1CCN(Cc2ccccc2)CC1)c1ccc(I)cc1	u	-0.6%	x	x	x
COc1cccc(OCc2nnc(SCC(=O)OCc3ccccc3)o2)c1	2%	-0.1%	i	i	1e-09
CCCC(O)(CCN1CCOCC1)c1ccc(Br)cc1 (centres undefined)	u	-1.5%	i	i	2.1e-08
N#CC1=C(N)SC(N)=C(C#N)C1Cc1ccccc1	10%	0.9%	x	x	x
COc1nc(NCc2ccc(Cl)cc2)nc(OC)n1	24%[11.4 µM]	-1.0%	x	x	x
CC1C2CC(CC1(C)C)N(C(=O)Nc1ccc3nccnc3c1)C2 (centres undefined)	20%	15%	x	x	x
CC1CCN(C(=O)c2cc(-c3ccccc3O)on2)CC1	-14%	3.3%	x	x	x
COc1cccc(OC)c1OCC(C)CNCC1CCCO1 (centres undefined)	x	x	i	i	1e-09
CCOC(=O)c1[nH]c2ccc(C)cc2c1NC(=O)CN1CCCCC1	5%	1.3%	i	i	2.1e-09
COc1ccc(CNc2ncncc2-c2ccccc2OC)c(OC)c1	u	-0.1%	i	i	4.1e-08
CSc1ccccc1NC(=O)c1ccccc1N(C)S(C)(=O)=O	7%	-0.2%	i	i	5.4e-09
Cn1c(SCC(=O)N2CCc3ccccc32)nc2cccnc21	19%	2.3%	i	i	4e-08
CC(C)Oc1ccc(C2C(C(=O)c3ccco3)=C(O)C(=O)N2Cc2cccnc2)cc1 (centres undefined)	0%	1.9%	i	i	1e-09
COCc1nnc(NC(=O)CS(=O)(=O)Cc2ccccc2)s1	-14%	-0.7%	i	i	1e-09
COc1ccc(N2CCN(C3CC(=O)N(Cc4ccc(N5CCCC5=O)cc4)C3=O)CC2)cc1 (centres undefined)	6%	-0.3%	x	x	x
Cc1nc2ccc(C(=O)c3ccccc3)cc2[nH]1	-6%	1.7%	x	x	x
CCN1C(=O)CC(c2ccco2)Sc2ccccc21 (centres undefined)	16%	-2.1%	x	x	x
CCOC(=O)N1CCN(C(=O)CCS(=O)(=O)c2ccc(Br)s2)CC1	-3%	0.3%	i	i	1e-08
COc1ccc2c(c1)O[C@H](c1cccc(C(F)(F)F)c1)[C@@H](O)C2=O	-1%[11.4 µM]	-1.0%[11.5 µM]	x	x	x
CC1(C)CC(=O)c2sc(N3CCCCC3)nc2C1	0%	-1.5%	i	i	4.4e-08
CC(C)(C)n1ncc2c(=O)n(CC(=O)NCc3ccccc3Cl)cnc21	x	1.3%	i	i	1e-09
O=C(NCc1ccco1)c1ccc(Cl)c(S(=O)(=O)N2CCOCC2)c1	11%	0.8%	i	i	1.2e-09

The listing continues.
Structure	TSHR agonist	AID923	Resorufin fluor	A488 fluor	A647 fluor
CCCCOc1cc(=O)[nH]c(=O)[nH]1	-1%	-1.8%	i	i	1e-09
O=C(Nc1nnc(-c2ccco2)s1)C1CC1	1%	1.2%	i	i	6.2e-08
COc1ccccc1-c1cc(C(=O)N2CCN(c3ccccc3OC)CC2)no1	-3%[11.4 µM]	1.1%	i	i	1e-09
Cc1cn2c(-c3ccc(Cl)cc3)nnc2s1	u	-0.2%	x	x	x
COc1ccc(C2C(C(=O)N3CCOCC3)=C(C)NC3=C2C(=O)CC(C)(C)C3)c(OC)c1 (centres undefined)	1%	u	i	i	1e-08
Cc1ccc(NC(=O)c2nc[nH]c2C(=O)N2CCCCC2)c(C(=O)c2ccccc2)c1	11%	-1.7%	i	i	1.3e-08
COc1cccc(C2NC(=O)NC(C)=C2C(=O)Nc2cc(OC)ccc2OC)c1 (centres undefined)	5%	0.8%	x	x	x
Cc1noc(C)c1CSc1nc2ccccc2c(=O)n1-c1ccccc1	u	-0.3%	i	i	1e-09
CCN(CC)C(=O)Oc1ccc2c(=O)c(-c3ccc(OC)cc3)c(C)oc2c1	30%	1.9%	i	i	9.6e-09
CCOC(=O)c1cc(S(=O)(=O)N2CCN(C(=O)OCC)CC2)cn1C	0%	2.1%	i	i	1e-09
C=CCN1C(=O)C(CC(=O)O)SC1=Nc1c(C)n(C)n(-c2ccccc2)c1=O (centres undefined)	-2%	2.4%	i	i	1e-09
CCn1c(SCC(=O)Nc2ccccc2N2CCOCC2)nnc1-c1ccccc1	0%	-0.5%	i	i	2.4e-09
O=c1oc2ccccc2n1CCCCCn1c(=O)oc2ccccc21	18%	-0.4%	i	i	1.7e-09
O=C(CSc1ccc2nnc(-c3ccc(F)cc3)n2n1)N1CCOCC1	7%	-1.2%	x	x	x
Cc1c2cccc(Sc3ccccc3)c2c2c3c(cccc13)[S+](c1ccccc1)C2 (centres undefined)	2%[11.4 µM]	-4.0%[11.5 µM]	i	i	2.7e-09
CCn1c(N)c(C(=O)Nc2ccccc2C(=O)OC)sc1=S	-18%	5.9%	i	i	1e-09
C/C(CCN1CCCCc2nc(C)c(C)cc21)=N\OC[C@@H](C)[C@H](OCc1ccccc1)C(C)C	21%[11.4 µM]	0.9%[11.5 µM]	x	x	x
O=C(CC1CCCC1)NCCc1cn2ccccc2n1	u	-2.4%	x	x	x
CC(C)Cn1c(SCC#N)nc2ccccc2c1=O	u	0.1%	i	i	3.3e-08
COCCN1C(=O)c2ccccc2C(C(=O)NCCN(C)C)C1c1ccc(F)cc1 (centres undefined)	u	-0.1%	i	i	1e-09
COc1ccc(S(=O)(=O)N2CCN(CC(=O)Nc3cccc(F)c3)CC2)cc1	-2%	1.2%	i	i	3e-08
COC(=O)N1CCC2(CC1)CCN(c1cccc(-c3ccccc3)c1)CC2	-2%	2.4%	i	i	4.9e-09
COc1ccc(CCNC(=O)CSc2ncnc3c2oc2ccccc23)cc1OC	13%	-0.1%	i	i	2.9e-08
CSC1=C(C#N)C(CC(C)C)C2=C(CCCC2=O)N1 (centres undefined)	u	1.3%	i	i	3.6e-08
CCOC(=O)C1=C(O)C(=O)N(c2ccc(S(N)(=O)=O)cc2)C1c1ccccc1 (centres undefined)	u	0.5%	i	i	1.2e-08
CC(=O)c1cc2c(cc1NC(=O)c1cnc(C)cn1)OCO2	-5%	0.6%	i	i	1e-09
CCc1cc(=O)oc2cc(C)cc(O)c12	-9%	-2.0%	x	x	x
C/C(N)=C(/C#N)C(=O)CSc1nnc(COc2ccccc2Cl)o1	-7%	-0.8%	i	i	5.8e-09

Compound profiles, as listed above. Order of values: TSHR agonist | AID923 | Resorufin fluor | A488 fluor | A647 fluor
COc1ccc(CCNC(=O)CSc2ncnc3c2oc2ccccc23)cc1OC as listed: 13% | -0.1% | i | i | 2.9e-08
CCOC(=O)C1=C(O)C(=O)N(c2ccc(S(N)(=O)=O)cc2)C1c1ccccc1 (centres undefined) as listed: u | 0.5% | i | i | 1.2e-08
CC(=O)c1cc2c(cc1NC(=O)c1cnc(C)cn1)OCO2 as listed: -5% | 0.6% | i | i | 1e-09
C/C(N)=C(/C#N)C(=O)CSc1nnc(COc2ccccc2Cl)o1 as listed: -7% | -0.8% | i | i | 5.8e-09

The list is partial; the hit share may differ from the screen's.
